Source: PubChem (Broad Institute)
Vaccinia inh = blocks a specific stage of Vaccinia orthopoxvirus infection; Vaccinia-infected cells, mCherry/Venus stage reporter fluorescence; hits give low values; some inactives read as strong as hits; activity change (mCherry), % (concentration not given with the values); 89,000 compounds, 0.01% hits; AID 1053133;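 active = mCherry past -33% and 40 or more points under the early reporter, replicates agreeing; inconclusive = past -33% without that gap or agreement; tested in A549 cells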;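 also: scaled between vehicle wells and reference inhibitor wells; 23 nL library stock went into each well; one replicate is shown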
Vaccinia inh Venus = second read-out of Vaccinia inh, no call of its own (marks repeat the call); activity change (Venus), %; measured here: Venus reporter, other viral stage;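 negative = less Venus signal; first of two replicates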
* hit, by the source's call; ? = inconclusive; . = no result given; & = joins results of further samples. Not all compounds are listed; rates above refer to the full screens.

Order of values – Vaccinia inh	Vaccinia inh Venus
C[C@H](CO)N1C[C@H](C)[C@@H](CN(C)Cc2ccc3c(c2)OCO3)OCCCC[C@H](C)Oc2ccc(NC(=O)Nc3ccccc3)cc2C1=O
  ?	.
C[C@@H]1CN([C@H](C)CO)C(=O)c2cccc(NC(=O)Nc3ccc(F)cc3)c2O[C@H]1CN(C)Cc1ccc2c(c1)OCO2
  -6	-13
Cc1noc(C)c1S(=O)(=O)N(C)C[C@@H]1Oc2ccc(NC(=O)c3ccncc3)cc2CC(=O)N([C@@H](C)CO)C[C@@H]1C
  4	3
NCC[C@@H]1CC[C@@H](NS(=O)(=O)Cc2ccccc2)[C@@H](CO)O1
  33	25
COc1ccc2c3c([nH]c2c1)[C@@H](CO)N(Cc1ccncc1)CC31CCN(Cc2ccc(-c3ccccn3)cc2)CC1
  -15	-10
COc1cccc(S(=O)(=O)Nc2ccc3c(c2)[C@@H]2C[C@H](CC(=O)NCc4ccccc4F)O[C@H](CO)[C@@H]2O3)c1
  -2	0
O=S(=O)(c1cccc(F)c1)N1[C@@H]2CNC[C@H]1C2c1ccc(-c2cccnc2)cc1 (stereo not given in full)
  -29&3	-17&-2
C[C@H]1CN([C@@H](C)CO)C(=O)Cc2cc(NC(=O)CCN3CCOCC3)ccc2O[C@@H]1CN(C)C(=O)Nc1ccc(F)cc1
  3	-2
CCCC#Cc1ccc2c(c1)O[C@@H](CN(C)C(=O)c1cnccn1)[C@@H](C)CN([C@H](C)CO)S2(=O)=O
  9	5
O=C(NCC[C@H]1CC[C@@H](NC(=O)C2CC2)[C@@H](CO)O1)c1ccc(F)cc1
  -3	-2
COCC#Cc1ccc2c(c1)O[C@H](CN(C)Cc1cncnc1)[C@H](C)CN([C@@H](C)CO)S2(=O)=O
  12	5
C[C@@H]1CN([C@@H](C)CO)C(=O)Cc2cc(NS(=O)(=O)c3ccc(F)cc3)ccc2O[C@@H]1CN(C)Cc1ccc(C(=O)Nc2ccccc2N)cc1
  -2	8
Cc1ccc(S(=O)(=O)Nc2cccc3c2O[C@@H](CN(C)Cc2ccc(Cl)c(Cl)c2)[C@H](C)CN([C@@H](C)CO)C3=O)cc1
  -29	-28
COc1cccc(CNC(=O)C[C@H]2C=C[C@H](NS(=O)(=O)c3ccccc3OC)[C@@H](CO)O2)c1
  2	5
COCc1cn(CC[C@@H]2CC[C@H](NC(=O)c3ccccc3)[C@@H](CO)O2)nn1
  14	10
CC(C)C#Cc1ccc2c(c1)O[C@H](CN(C)C(=O)Cc1ccccn1)[C@@H](C)CN([C@@H](C)CO)S2(=O)=O
  -11	-13
COc1ccc(NC(=O)Nc2ccc3c(c2)[C@H]2C[C@H](CC(=O)NC4CCCCC4)O[C@H](CO)[C@H]2O3)cc1
  3	5
C[C@@H]1CCCCO[C@@H](CN(C)C(=O)Nc2ccccc2)[C@H](C)CN([C@H](C)CO)C(=O)c2cc(NS(C)(=O)=O)ccc2O1
  14	3
CN(C)CC(=O)N1[C@H](CO)[C@@H](c2ccccc2-c2ccc(C(=O)N(C)C)cc2)[C@@H]1C#N
  20	22
CCCNC(=O)C[C@H]1CC[C@@H]2[C@H](COC[C@H](O)CN2S(=O)(=O)c2ccccc2F)O1
  17	10
C/C=C/c1ccc2c(c1)O[C@H](CN(C)S(C)(=O)=O)[C@H](C)CN([C@H](C)CO)S2(=O)=O
  -9	-10
Cc1noc(C)c1S(=O)(=O)Nc1ccc2c(c1)C(=O)N([C@H](C)CO)C[C@H](C)[C@H](CN(C)C(=O)Nc1ccc(C(F)(F)F)cc1)OCCCC[C@H](C)O2
  ?	.
COc1ccc(S(=O)(=O)N(C)C[C@H]2Oc3ccc(NC(=O)CCCN(C)C)cc3CC(=O)N([C@H](C)CO)C[C@@H]2C)cc1
  -6	-3
O=C([C@H]1[C@H](CO)[C@H]2Cn3c(ccc(C4=CCCC4)c3=O)[C@H]2N1Cc1nccs1)N1CCOCC1
  -14	-2
Cc1ccc(S(=O)(=O)N(C)C[C@H]2OCCCC[C@@H](C)Oc3ccc(NS(C)(=O)=O)cc3C(=O)N([C@@H](C)CO)C[C@H]2C)cc1
  -11	-11
C[C@@H]1CN([C@@H](C)CO)C(=O)c2cc(/C=C/c3ccccc3)cnc2O[C@H]1CN(C)C(=O)c1cnccn1
  12	2
COC(=O)N(C)C[C@H]1OCc2cn(nn2)CCCC(=O)N([C@H](C)CO)C[C@H]1C
  5	6
COc1ccc(NC(=O)Nc2ccc3c(c2)CC(=O)N([C@@H](C)CO)C[C@H](C)[C@@H](CN(C)CC2CC2)O3)cc1
  -8	-2
CCS(=O)(=O)N1CCCCN2[C@H](CO)[C@H](c3ccc(-c4ccccc4)cc3)[C@@H]2C1
  11	5
C[C@@H]1CN([C@@H](C)CO)C(=O)CCCn2cc(nn2)CO[C@H]1CN(C)Cc1ccc(C(=O)O)cc1
  12	9

Reprinted from the part before: 6 compounds, then new ones.
Order of values – Vaccinia inh	Vaccinia inh Venus
Cc1ccc(S(=O)(=O)N(C)C[C@H]2OCCCC[C@@H](C)Oc3ccc(NS(C)(=O)=O)cc3C(=O)N([C@@H](C)CO)C[C@H]2C)cc1
  -11	-11
C[C@@H]1CN([C@@H](C)CO)C(=O)c2cc(/C=C/c3ccccc3)cnc2O[C@H]1CN(C)C(=O)c1cnccn1
  12	2
COC(=O)N(C)C[C@H]1OCc2cn(nn2)CCCC(=O)N([C@H](C)CO)C[C@H]1C
  5	6
COc1ccc(NC(=O)Nc2ccc3c(c2)CC(=O)N([C@@H](C)CO)C[C@H](C)[C@@H](CN(C)CC2CC2)O3)cc1
  -8	-2
CCS(=O)(=O)N1CCCCN2[C@H](CO)[C@H](c3ccc(-c4ccccc4)cc3)[C@@H]2C1
  11	5
C[C@@H]1CN([C@@H](C)CO)C(=O)CCCn2cc(nn2)CO[C@H]1CN(C)Cc1ccc(C(=O)O)cc1
  12	9
O=C(NCc1ccccc1)C1=C[C@@H](C2CC2)C[C@@H](OCCCCO)O1
  17	12
OC[C@@H]1[C@H](c2ccc(-c3ccc(F)cc3)cc2)[C@@H]2CN(Cc3ccncc3)CCCCN12
  -6	-7
C[C@@H]1CN([C@@H](C)CO)C(=O)c2cc(NC(=O)Nc3ccc(F)cc3)ccc2O[C@@H](C)CCCCO[C@H]1CN(C)C(=O)c1ccccc1
  15	2
CO[C@@H]1CN(C)C(=O)c2ccc(NC(=O)Nc3ccccc3)cc2OC[C@H](C)N(C(=O)Nc2c(C)noc2C)C[C@H]1C
  3	0
CCCC(=O)Nc1ccc2c(c1)OC[C@@H](C)N(C)C[C@H](C)[C@@H](OC)CN(C)C2=O
  0	1
O=S(=O)(c1ccccc1)N1CCCCN2[C@@H](CO)[C@@H](c3ccc(-c4cncnc4)cc3)[C@@H]2C1
  8	-4
C[C@@H]1CN([C@@H](C)CO)C(=O)CCCn2nncc2CO[C@@H]1CN(C)S(=O)(=O)c1cccc(C#N)c1
  1	9
Cc1noc(C)c1S(=O)(=O)N(C)C[C@H]1OCCCC[C@@H](C)Oc2ccc(NC(=O)Nc3ccccc3)cc2C(=O)N([C@@H](C)CO)C[C@@H]1C
  -19	-13
CNC[C@H]1OCCCC[C@@H](C)Oc2ccc(NC(=O)c3ccncc3)cc2C(=O)N([C@H](C)CO)C[C@@H]1C
  10	8
C[C@@H]1CN([C@@H](C)CO)C(=O)Cc2cc(N(C)C)ccc2O[C@H]1CN(C)C(=O)Nc1ccc(C(F)(F)F)cc1
  -19	-14
C[C@H]1CN([C@@H](C)CO)C(=O)c2cccc(N(C)C)c2O[C@@H]1CN(C)S(C)(=O)=O
  10	6
CCCNC(=O)N[C@@H]1CC[C@@H](CCn2cc(C3CCCC3)nn2)O[C@H]1CO
  -5	-6
O=C(C1CCCC1)N1CC(=O)N2[C@H](CO)[C@H](c3ccc(Br)cc3)[C@@H]2C1
  7	7
COc1cccc(-c2ccc3n(c2=O)C[C@@H]2[C@@H](CO)[C@H](C(=O)NCC4CC4)[C@H]3N2S(C)(=O)=O)c1
  4	8
N#C[C@@H]1[C@H](c2ccccc2-c2ccc(F)cc2)[C@H](CO)N1c1ncc(-c2ccccc2)s1
  5	3
COc1ccccc1S(=O)(=O)N[C@@H]1CC[C@H](CCNC(=O)C2CCC2)O[C@H]1CO
  5	5
C[C@@H]1CN([C@H](C)CO)S(=O)(=O)c2ccc(-c3ccccc3F)cc2O[C@@H]1CN(C)Cc1cccnc1
  ?	.
CCNC(=O)C[C@H]1CC[C@H]2[C@@H](COc3ccc(NC(=O)Nc4ccc(F)cc4)cc3C(=O)N2C)O1
  14	14
COc1ccc(CN2C[C@@H](O)COC[C@@H]3O[C@H](CC(=O)N(C)C)CC[C@H]32)cc1
  0	5
CCC(=O)Nc1ccc2c(c1)OC[C@H](C)N(Cc1ccccc1OC)C[C@H](C)[C@@H](OC)CN(C)C2=O
  9	6
COc1ccc(-c2cnc3c(c2)C(=O)N([C@H](C)CO)C[C@@H](C)[C@@H](CN(C)C(=O)Cc2cccnc2)O3)cc1
  4	-2
CO[C@@H]1CN(C)C(=O)c2ccc(NC(=O)C3CCC3)cc2OC[C@@H](C)N(C(=O)c2ccccc2)C[C@H]1C
  -5	-6
Cc1noc(C)c1S(=O)(=O)Nc1cccc2c1O[C@H](CN(C)Cc1ccc(C(F)(F)F)cc1)[C@H](C)CN([C@@H](C)CO)C2=O
  3	3
C[C@H]1CN([C@@H](C)CO)C(=O)c2cccc(NC(=O)Nc3cccc4ccccc34)c2O[C@@H]1CN(C)S(C)(=O)=O
  6	6
C[C@@H]1CN([C@H](C)CO)C(=O)c2cc(NS(C)(=O)=O)ccc2O[C@H]1CN(C)C(=O)Nc1ccc2c(c1)OCO2
  20	4
O=C(NCC1CC1)[C@@H]1[C@@H](CO)[C@@H]2Cn3c(ccc(C4=CCCCC4)c3=O)[C@H]1N2
  24	16
C/C=C/c1ccc2c(c1)O[C@H](CN(C)Cc1ccccc1)[C@H](C)CN([C@@H](C)CO)S2(=O)=O
  ?	.
CCC(=O)N[C@H]1CC[C@@H](CC(=O)NCC2CCCCC2)O[C@H]1CO
  5	2
C[C@H]1CN([C@@H](C)CO)C(=O)c2cccc(NS(C)(=O)=O)c2O[C@@H]1CN(C)Cc1ccc(-c2ccccc2)cc1
  -2	0
Cc1ccc(S(=O)(=O)Nc2ccc3c(c2)C(=O)N([C@@H](C)CO)C[C@@H](C)[C@@H](CN(C)S(C)(=O)=O)O3)cc1
  11	6

Quoted from the listing.
In Vaccinia inh, `O=C(NCc1ccccc1)C1=C[C@@H](C2CC2)C[C@@H](OCCCCO)O1` has 17
In Vaccinia inh Venus, `CN(C)CC(=O)N1[C@H](CO)[C@@H](c2ccccc2-c2ccc(C(=O)N(C)C)cc2)[C@@H]1C#N` has 22

Other structures:
Order of values – Vaccinia inh	Vaccinia inh Venus
O=C(C[C@H]1CC[C@@H](NC(=O)C2CCOCC2)[C@@H](CO)O1)Nc1nccs1
  -5	6
C[C@@H]1CCCCO[C@@H](CN(C)C(=O)Nc2ccc(F)cc2)[C@@H](C)CN([C@H](C)CO)C(=O)c2cc(NC(=O)Cc3ccccc3)ccc2O1
  19	12
CC(=O)N(C)C[C@H]1Oc2cc(-c3ccccc3)ccc2S(=O)(=O)N([C@H](C)CO)C[C@@H]1C
  18	-1
C[C@@H]1CN([C@@H](C)CO)C(=O)c2cccc(NC(=O)CCCCCC(=O)Nc3ccccc3N)c2O[C@H]1CN(C)C(=O)Nc1ccc2c(c1)OCO2
  11	10
CCS(=O)(=O)N1CCC2(CC1)CN(C(=O)Cc1ccccn1)[C@H](CO)c1[nH]c3cc(OC)ccc3c12
  11	10
COCC(=O)N1CC2(C1)[C@@H](c1ccccc1)[C@H](CO)N2C(=O)c1cccnc1
  -4	0
C/C=C/c1ccc2c(c1)O[C@@H](CN(C)C(C)=O)[C@@H](C)CN([C@H](C)CO)S2(=O)=O
  9	8
C[C@@H]1CN([C@H](C)CO)C(=O)c2cccc(NC(=O)CCCCCC(=O)Nc3ccccc3N)c2O[C@@H]1CN(C)C
  11	5
COc1ccccc1NC(=O)N1C[C@@H](O)COC[C@@H]2O[C@H](CC(=O)NCc3ccccc3)CC[C@H]21
  -13	-7
Cc1noc(C)c1NC(=O)N(C)C[C@H]1Oc2ccc(NC(=O)Nc3ccc4c(c3)OCO4)cc2C(=O)N([C@@H](C)CO)C[C@H]1C
  0	6
O=C(O)[C@@H]1[C@@H](CO)[C@@H]2Cn3c(ccc(-c4ccccc4)c3=O)[C@H]1N2S(=O)(=O)c1ccccc1F
  5	11
C[C@H]1CN([C@@H](C)CO)C(=O)c2cc(-c3ccncc3)cnc2O[C@@H]1CN(C)C(=O)c1ccccc1F
  6	-1
C[C@@H]1CCCCO[C@@H](CN(C)C(=O)Nc2ccccc2)[C@@H](C)CN([C@H](C)CO)C(=O)c2cc(NC(=O)CCCN(C)C)ccc2O1
  26	15
CCS(=O)(=O)Nc1ccc2c(c1)C(=O)N(C)[C@H]1CC[C@@H](CC(=O)NC3CCCCC3)O[C@@H]1CO2
  13	13
C[C@@H]1CN([C@H](C)CO)C(=O)c2cc(NS(=O)(=O)c3cn(C)cn3)ccc2O[C@H]1CN(C)S(=O)(=O)c1cccs1
  29	19
C[C@H](CO)N1C[C@H](C)[C@H](CN(C)Cc2ccc3c(c2)OCO3)OCCCC[C@H](C)Oc2ccc(NS(=O)(=O)c3ccccc3)cc2C1=O
  ?	.
C[C@H](O)C#Cc1ccc2c(c1)O[C@@H](CN(C)Cc1cccnc1)[C@@H](C)CN([C@H](C)CO)S2(=O)=O
  7	0
COCC(=O)Nc1ccc2c(c1)C(=O)N(C)C[C@@H](OC)[C@H](C)CN(C(C)=O)[C@@H](C)CO2
  6	5
CO[C@@H]1CN(C)C(=O)c2cc(NC(=O)NC(C)C)ccc2OC[C@@H](C)N(C)C[C@@H]1C
  -4	-9
